# E coli growth: E. coli growth inhibition; Escherichia coli growth, OD600, 23 h; hits give low values; OD600 absorbance (test concentration not listed); 330,000 compounds, 0.21% hits; AID 1053175;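 active = OD600 absorbance below the run mean of sample wells minus 3.6 SD, in any replicate, cut at about 0.56 in these data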;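 note: stock transfer was 300 nL into about 60 µL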
# FGF22 binding: binders of recombinant human FGF22 by thermal shift; Q9HCT0; SYPRO orange fluorescence; percent of sucrose octasulfate shift, DMSO zero; calls only at 9.99 µM; 340,000 compounds, 1.5% hits; AID 651658;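 active = melting point raised past a set limit in the mean and every replicate; inconclusive = no clear call; three in four hits are not shown here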
# Target sequence (Q9HCT0 whole entry, looked up): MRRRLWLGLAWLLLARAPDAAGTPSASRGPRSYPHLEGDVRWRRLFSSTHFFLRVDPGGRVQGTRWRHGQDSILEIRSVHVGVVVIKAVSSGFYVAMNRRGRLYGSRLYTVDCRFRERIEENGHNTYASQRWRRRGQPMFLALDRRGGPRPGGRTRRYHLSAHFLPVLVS
# Beta apoptosis: beta cell apoptosis inhibition | protection from apoptosis, % (concentration not given with the values) | AID 435005 | INS-1E cytokine-induced death, ATP luminescence, 48 h; percent of positive-control rescue, neutral wells zero | 300,000 compounds, 0.8% hits;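 active = all replicates at 75% or more, or half of them and the mean; inconclusive = half reach 75% but not the mean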;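 note: 0% = cytokine-treated negative control wells and 100% = positive control rescue; higher means more ATP so stronger rescue from cytokine killing; wells of about 40 µL received 100 nL stock; the first replicate is given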
# T cruzi repl: T. cruzi replication inhibition; T. cruzi beta-gal in NIH3T3, luminescence, 90 h; inhibition, % (test concentration not listed); 300,000 compounds, 1.4% hits;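 active = mean inhibition across valid replicates above about 55%, limit read from the data; inconclusive = mean below that limit but half or more replicates reach it; inactive = mean below it, under half of replicates reach it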;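 note: signal also drops with host cell toxicity which is not excluded here; 0% = plate median of DMSO wells and 100% = zero luminescence signal; higher percent means less beta-gal luminescence so fewer parasites; stock transfer was 50 nL into about 50 µL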
# Ecoli rRNA inh: selective bacterial rRNA inhibition in E. coli; E. coli WT GFP vs humanized-ribosome RFP mutants, fluorescence, 24 h; hits give low values; DMSO median 0, no signal -100; GFP signal change (wild-type ribosome), % (no concentration beside the values); 350,000 compounds, 1.6% hits;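 active = significant combined selectivity score with lowered wild-type GFP, culture density cut under 30%, mutant RFP and density less affected; inactive = any of these conditions unmet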; note: one replicate is shown; some compounds called inactive have numbers as strong as hits
# AF4-AF9 inh: blocks AF4 peptide binding to human AF9 | 350,000 compounds, 0.47% hits | AlphaScreen, biotin-AF4 peptide binding to FLAG-AF9 | P42568 | inhibition, % at 10 µM | AID 651704;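 active = every replicate reaching a set inhibition limit, whatever the replicate mean, cut at about 25% in these data; inconclusive = mean inhibition reaches that limit but some replicates miss it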;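 note: 0% = plate neutral control median and 100% = total signal loss; the record names both 10 and 1 µM as test concentration; the first replicate is given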
# Target sequence (P42568 whole entry, looked up): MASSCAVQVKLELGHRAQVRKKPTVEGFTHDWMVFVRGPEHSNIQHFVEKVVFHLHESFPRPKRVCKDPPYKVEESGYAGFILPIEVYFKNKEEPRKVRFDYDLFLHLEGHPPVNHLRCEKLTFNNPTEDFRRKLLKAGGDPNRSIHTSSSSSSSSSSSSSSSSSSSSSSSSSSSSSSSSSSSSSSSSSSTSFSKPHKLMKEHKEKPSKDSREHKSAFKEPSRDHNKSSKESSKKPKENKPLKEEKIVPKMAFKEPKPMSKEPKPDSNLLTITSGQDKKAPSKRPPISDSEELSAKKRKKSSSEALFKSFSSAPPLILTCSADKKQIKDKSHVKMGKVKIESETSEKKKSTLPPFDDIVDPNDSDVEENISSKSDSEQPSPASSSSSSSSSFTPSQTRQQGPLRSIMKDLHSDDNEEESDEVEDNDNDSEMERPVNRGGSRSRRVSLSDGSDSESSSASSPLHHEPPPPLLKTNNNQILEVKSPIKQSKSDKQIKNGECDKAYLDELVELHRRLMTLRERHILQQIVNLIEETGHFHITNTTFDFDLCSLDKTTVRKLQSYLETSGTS
# A1 inh: inhibitors of the anti-apoptotic protein A1, read as caspase activation; MEF A1-2A-BIM cells, Caspase-Glo 3/7 luminescence, 3 h; percent of clofoctol response, vehicle zero; caspase activation, % (concentration not given with the values); 330,000 compounds, 0.066% hits; AID 2462;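 active = over half of replicate activation scores above 10%, or exactly half above 10 with the replicate mean above 10; inconclusive = replicate mean below 10 yet half the replicates above 10; inactive = over half of replicates below 10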;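 note: wells of about 30 µL received 50 nL stock; many hits fall short of the cut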
# UCH37 inh: human UCH37 deubiquitinating enzyme inhibition; inhibition, % (concentration not given with the values); purified proteasome/UCH37, Ub-AMC cleavage fluorescence; AID 588478; Q9Y5K5; 330,000 compounds, 0.33% hits;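 active = mean of two replicates above 20%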;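 note: 0% = compound-free wells with enzyme and 100% = wells lacking proteasome; stock transfer was 100 nL into about 20 µL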
# Target sequence (Q9Y5K5 whole entry, looked up): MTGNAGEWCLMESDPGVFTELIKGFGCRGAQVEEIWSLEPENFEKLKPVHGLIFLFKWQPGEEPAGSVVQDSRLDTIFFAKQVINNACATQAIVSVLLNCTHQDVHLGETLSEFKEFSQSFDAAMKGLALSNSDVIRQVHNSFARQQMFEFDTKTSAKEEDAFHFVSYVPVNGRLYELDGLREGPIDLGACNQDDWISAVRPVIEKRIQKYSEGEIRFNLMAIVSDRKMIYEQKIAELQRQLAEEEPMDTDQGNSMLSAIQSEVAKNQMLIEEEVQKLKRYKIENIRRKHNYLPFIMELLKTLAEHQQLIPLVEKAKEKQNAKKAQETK
#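 system = Proteasome-associated human UCH37 deubiquitinase | amount = 0.15 nM proteasome as dispensed | medium = pH 7.4 Tris-HCl (50 mM) with ovalbumin, ATP-MgCl2, DTT | incubation = 30 min preincubation with enzyme, 25 min cleavage at room temperature | detection = AMC fluorescence 355/460 nm | read-out basis = percent inhibition | controls = no-proteasome and no-compound wells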
# Ecoli rRNA inh OD600: second read-out of Ecoli rRNA inh, no call of its own (marks repeat the call); OD600 change, %; measured here: OD600 growth;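 optical density of the mix in the first replicate; 0 = DMSO median and -100 = no signal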
# Ecoli rRNA inh RFP: further read-out of Ecoli rRNA inh, marked with its call; RFP signal change, %; measured here: RFP humanized mutant strains;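 first replicate; 0 = DMSO median and -100 = no signal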
# Numbers without * were called inactive; i = inactive; ? = inconclusive; nt = no result given; + = active, no number.
SMILES,E coli growth,FGF22 binding,Beta apoptosis,T cruzi repl,Ecoli rRNA inh,Ecoli rRNA inh OD600,Ecoli rRNA inh RFP,AF4-AF9 inh,A1 inh,UCH37 inh
O=C(NNC1=C(C(=O)C(F)(F)F)CCC1)c1ccccc1Cl,0.72,nt,9,-8,nt,nt,nt,nt,-0.4,2.4
COC(=O)Cc1c(O)ccn(Cc2cccc(C(F)(F)F)c2)c1=O,0.68,i,0,-11,1,7,-0.7,-0.6,0.6,1.1
Cc1ccccc1Cn1c(=O)n(-c2ccccc2)c(=O)c2ccc(C(=O)NCc3ccco3)cc21,0.74,i,2,-42,18,6,-3.9,-3.4,0.2,2.7
COC(=O)c1ccc(NC(=O)C2CC(=O)N(c3ccc(C)cc3)C2)cc1 (stereo not given),0.71,nt,-1,nt,nt,nt,nt,nt,?,1.6
COCC(=O)N(Cc1cc2cc(OC)ccc2[nH]c1=O)c1ccc(C)cc1,0.74,nt,nt,-5,nt,nt,nt,nt,0.2,-74
Cc1cc(S(=O)(=O)N(Cc2ccccn2)Cc2ccco2)ccc1-n1cnnn1,0.7,i,-2,-8,-11,12,6.8,3.3,-0.2,0.2
CCOC(=O)c1c(C)c(-c2ccccc2)n(CC(=O)N2CCN(C)CC2)c1C,0.77,i,-8,-9,-10,-15,1.1,1.1,0.5,2.6
COc1cccc(N2CC(C(=O)NNC(=O)c3ccc(Cl)cc3)CC2=O)c1 (stereo not given),0.73,i,-2,0,9,4,0.4,0.1,0.7,0.7
Cc1cc(S(=O)(=O)NC2CCCC2)ccc1F,0.71,nt,-5,-3,nt,nt,nt,nt,-1.4,1.4
CN1C(=O)C(CC(=O)N2CCN(C(c3ccccc3)c3ccccc3)CC2)N(C)C1=O (stereo not given),0.7,nt,-4,-21,nt,nt,nt,nt,1.4,1.5
COc1ccc(CNC(=S)Nc2ccccc2-c2ccccc2)cc1,0.74,nt,6,17,nt,nt,nt,nt,0.2,2.6
COc1ccc(C(=O)N2CCN(C)C(C)C2)cc1OC1CCN(C(C)=O)CC1 (stereo not given),0.66,i,nt,-15,14,17,1.6,-0.7,-0.2,0.6
C/C(CCc1ccc2c(c1)OCO2)=N\NC(=O)c1ccc(C)cc1C,nt,i,-10,21,9,9,3.1,-0.6,-0.2,nt
Cc1nc2ncccn2c1-c1csc(Nc2ccc(S(N)(=O)=O)cc2)n1,0.7,i,nt,-6,12,3,-0.1,-13,0.4,4.2
COc1ccc(-c2[nH]ncc2CN(C)C(C)c2ccon2)c(OC)c1 (stereo not given),0.7,i,-7,-1,4,7,-7.3,-0.7,0.9,6.0
O=C(Nc1cc(Cl)ccc1Cl)P(=O)(O)c1ccccc1,0.68,i,nt,nt,12,16,-1.5,-1.0,nt,0.0
COc1cc(C(=O)NCCCC2CCCC2)ccc1OC1CCN(C(C)=O)CC1,0.66,i,nt,-10,-9,-12,-1.5,-0.4,nt,4.5
CCOc1ccc(N2CC(C(=O)Nc3cc(OCC)c(N4CCOCC4)cc3OCC)CC2=O)cc1 (stereo not given),0.67,i,nt,nt,8,5,-1.4,-0.3,nt,4.1
COc1ccc(-n2nc(C(=O)NCC(=O)NCCCN3CCC(C)CC3)c3ccccc3c2=O)cc1Cl,0.67,i,11,25,0,3,-1.2,2.5,0.5,4.3
Cc1ccc(-c2csc(Cc3nc(-c4cc5ccccc5oc4=O)cs3)n2)cc1,0.65,i,8,-17,2,7,1.7,8.3,-0.6,-92
Brc1ccc2c(c1)OCCOCCOc1cc(Br)ccc1OCCOCCOCCO2,0.67,nt,19,65*,nt,nt,nt,nt,-0.3,3.9
COc1ccc(C(=O)c2cccc(C(=O)c3ccc(OC)c(C)c3)c2)cc1C,0.7,i,nt,10,4,7,-2.1,-2.5,nt,3.6
CCOC(=O)c1c(C)[nH]c(C(=O)OCC(=O)NC2(C#N)CCCCC2)c1C,0.74,i,3,1,-8,3,-0.9,1.2,1.6,2.3
COc1ccc(/C=N/NC(=O)c2ccccc2O)cc1CN1CCOCC1,nt,i,4,-17,16,13,0.3,2.3,0.0,nt
COc1ccccc1NS(=O)(=O)c1cc(C(=O)NCCN2CCOCC2)ccc1Cl,0.68,nt,-4,-7,nt,nt,nt,nt,0.2,6.0
O=C(CSc1nc2ccccc2s1)NNC(=S)Nc1ccc(Br)cc1,0.67,nt,2,-8,nt,nt,nt,nt,-0.4,5.1
CC1=C(C)CC(C(=O)Nc2ccc3c(c2)OCO3)C(C(=O)O)C1 (stereo not given),0.74,i,nt,7,12,3,1.8,0.0,-0.4,2.0
CC(=O)Nc1ccc(C(=O)Nc2cc(C(F)(F)F)ccc2-n2cnc3ccccc32)cc1,0.69,nt,-2,-8,nt,nt,nt,nt,0.0,3.6
C/C(N)=C(/C#N)C(=O)CSc1nnnn1-c1ccc(C)cc1,0.74,nt,-1,1,nt,nt,nt,nt,0.0,1.5
CCC(C)c1ccccc1N1CC(C(=O)Nc2ccc(C)c(S(=O)(=O)N3CCOCC3)c2)CC1=O (stereo not given),0.65,i,2,-8,-9,-8,1.7,11,0.7,3.0
O=C(c1cccc(S(=O)(=O)N2CCCC2)c1)N1CCN(c2ccccc2F)CC1,0.74,nt,-4,-1,nt,nt,nt,nt,-0.6,1.2
CC(C)(CNS(=O)(=O)c1ccc2c(c1)OCCO2)N1CCOCC1,0.7,+,-5,-15,18,15,1.7,-1.7,-0.2,0.3
CCOc1ccc(N(CC(=O)NCC2CCCO2)C(=O)CCC(=O)Nc2ccccn2)cc1 (stereo not given),0.7,nt,-4,10,nt,nt,nt,nt,0.6,4.4
CC(C)OP(=O)(OC(C)C)C1(O)C(=O)Nc2ccc(Br)cc21 (stereo not given),0.66,nt,-5,-2,nt,nt,nt,nt,-0.3,-0.5
COc1ccc(CN(N=O)C2CC(=O)N(c3ccc(OC)cc3)C2=O)cc1 (stereo not given),0.62,i,-8,3,8,-2,-0.8,nt,-0.2,1.3
Cc1ccc(CNC(=O)CC(C)S(=O)(=O)c2ccc3c(c2)NC(=O)CO3)cc1 (stereo not given),0.71,i,-6,-6,0,-2,-2.5,-2.6,-0.5,-1.9

# Profiles, quoted from the list. Order of values: E coli growth, FGF22 binding, Beta apoptosis, T cruzi repl, Ecoli rRNA inh, Ecoli rRNA inh OD600, Ecoli rRNA inh RFP, AF4-AF9 inh, A1 inh, UCH37 inh
# Cc1nc2ncccn2c1-c1csc(Nc2ccc(S(N)(=O)=O)cc2)n1 reads 0.7, i, nt, -6, 12, 3, -0.1, -13, 0.4, 4.2
# Cc1ccccc1Cn1c(=O)n(-c2ccccc2)c(=O)c2ccc(C(=O)NCc3ccco3)cc21 reads 0.74, i, 2, -42, 18, 6, -3.9, -3.4, 0.2, 2.7
# C/C(CCc1ccc2c(c1)OCO2)=N\NC(=O)c1ccc(C)cc1C reads nt, i, -10, 21, 9, 9, 3.1, -0.6, -0.2, nt

# Next part.
SMILES,E coli growth,FGF22 binding,Beta apoptosis,T cruzi repl,Ecoli rRNA inh,Ecoli rRNA inh OD600,Ecoli rRNA inh RFP,AF4-AF9 inh,A1 inh,UCH37 inh
CN1CCN(C(CNC(=O)Nc2ccc(Cl)cc2)c2ccc(F)cc2)CC1 (stereo not given),0.66,i,-6,26,-3,-13,4.3,6.1,0.0,2.5
Cc1ccc(S(=O)(=O)N2CCOCC2)cc1C(=O)N1CCN(c2ccc(C(F)(F)F)cn2)CC1,0.66,i,-4,nt,-19,-46,-5.4,2.4,0.4,1.5
C/C=C(\C)CN1CCC(n2nccc2NC(=O)CCc2ccccc2)CC1,0.63,i,-1,29,4,12,0.5,-1.8,0.3,-0.7
CCN(CC)c1ccc(NS(=O)(=O)c2cn(C)c(=O)n(C)c2=O)c(C)c1,0.72,i,4,9,-6,-11,-2.7,10,-0.2,5.8
CC1CCc2sc3ncnc(N4CCN(C)CC4)c3c2C1 (stereo not given),0.65,i,nt,25,-6,3,0.2,4.9,nt,5.0
COc1cnn(-c2cccc(C)c2)c(=O)c1Cl,0.69,i,1,-30,0,4,-1.1,0.2,-0.4,3.3
COc1ccccc1N/C(N)=N/c1nc(CSc2nc3ccccc3s2)cc(=O)[nH]1,0.74,nt,53,-28,nt,nt,nt,nt,1.1,3.0
O=C(N/N=C\c1c(O)ccc2ccccc12)c1ccc(O)cc1,nt,i,nt,20,-34,-67,1.0,-4.1,0.9,nt
Nc1nc(-c2ccco2)nn1C(=O)c1ccccc1Cl,0.67,i,nt,-3,5,12,1.6,-1.9,nt,4.9
c1ccc(Nc2nc(N3CCOCC3)c3ccccc3n2)cc1,0.68,nt,nt,17,nt,nt,nt,nt,0.7,-38
COc1ccc(NC(=O)CN2CCOCC2)cc1S(=O)(=O)N1CCCCC1,0.65,i,3,nt,2,11,1.7,1.4,-0.1,1.5
CC1(C)CC2(CCCN(C(=S)Nc3ccccc3)C2)CCO1 (stereo not given),0.64,i,-4,-7,8,1,-1.7,0.3,0.5,4.6

# Structures above with a cyano group:
SMILES,E coli growth,FGF22 binding,Beta apoptosis,T cruzi repl,Ecoli rRNA inh,Ecoli rRNA inh OD600,Ecoli rRNA inh RFP,AF4-AF9 inh,A1 inh,UCH37 inh
CCOC(=O)c1c(C)[nH]c(C(=O)OCC(=O)NC2(C#N)CCCCC2)c1C,0.74,i,3,1,-8,3,-0.9,1.2,1.6,2.3
C/C(N)=C(/C#N)C(=O)CSc1nnnn1-c1ccc(C)cc1,0.74,nt,-1,1,nt,nt,nt,nt,0.0,1.5

# Next part:
SMILES,E coli growth,FGF22 binding,Beta apoptosis,T cruzi repl,Ecoli rRNA inh,Ecoli rRNA inh OD600,Ecoli rRNA inh RFP,AF4-AF9 inh,A1 inh,UCH37 inh
C=CCSc1nc(N(CC)CC)c2sccc2n1,0.74,nt,nt,0,nt,nt,nt,nt,0.3,-1.7
COc1cccc(/C=N/n2nnnc2N)c1OCC#N,nt,i,-5,-7,0,-8,-0.9,-3.4,0.1,nt
Cc1cccc(NC(=S)NNC(=O)c2csc3c2CCCC3)c1,0.68,nt,-1,-15,nt,nt,nt,nt,-0.8,5.3
CCCCOc1ccc(C2C(C(=O)c3ccc(C)o3)=C(O)C(=O)N2Cc2ccco2)cc1 (stereo not given),nt,i,4,-9,7,4,-0.8,2.0,0.6,nt
O=S1(=O)CCOC[C@H](Cc2ccccc2)N1Cc1cccc(Cl)c1,nt,i,-4,3,-42,-48,-10,-4.8,?,3.9
CCc1cc2c(NCCC(=O)O)ncnc2s1,0.77,nt,0,-4,nt,nt,nt,nt,-1.2,-6.1
CCOC(=O)CC(NC(=O)Cc1cccs1)c1ccccc1Cl (stereo not given),0.7,i,-4,-1,1,2,-6.3,2.0,-0.6,0.4
CCCCN(C)CCNC(=O)C(=O)c1c(C)[nH]c2ccccc12,0.69,i,0,-2,0,2,-0.8,-1.0,-0.6,10
O=C(N/N=C/C=C\c1ccccc1[N+](=O)[O-])c1ccco1,nt,nt,1,-9,7,7,5.9,1.5,0.3,nt
CCOC(=O)[C@H]1[C@H]2COc3ccc(C)cc3[C@@H]2N2C(=O)c3cc(Cl)ccc3NC(=O)[C@@]12C,nt,i,10,nt,-8,-13,-5.4,4.1,-0.6,6.6

# The list is partial (hit frequency here may not be typical).
